High-throughput results: PubChem BioAssay, several laboratories
Mtb hypoxia inh: reduces hypoxia-regulated biosensor signal in M. tuberculosis; M. tuberculosis hypoxia-regulated fluorescent reporter, fluorescence; fluorescence inhibition, % (test concentration not listed); 0.1% of 300,000 active; AID 1159583;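 active means 35 to 45% if threefold the growth effect, above 45% if 1.5-fold the growth effect; inactive means the rest, general growth blockers included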;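 further: wells of about 50 µL received 100 nL stock; 0% = vehicle wells and 100% = reference inhibitor wells; whole bacteria with a GFP reporter of the hypoxia response; strong numbers were not always called active; many hits fall short of the cut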
PrP 5UTR inh: inhibition of PrP 5' UTR reporter expression; cell-based PrP 5' UTR mRNA reporter, plate reader; inhibition, % (concentration not given with the values); 0.35% of 340,000 active; AID 488862;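 active means every replicate at 50% or more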;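 further: 0 = median of the neutral control wells; tested in H4 reporter cells; numbers are from one replicate; inactives centre near -14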
BJeLR lethal: BJeLR cell viability loss. 0.17% of 300,000 active. BJeLR (HRASV12) viability, CellTiter-Glo ATP luminescence, 48 h; reference of the scale not given here. inhibition, % (concentration not given with the values);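 active means replicate mean above 50%; inconclusive means above 50% but judged a plate artefact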;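 further: 50 nL library stock added to about 25 µL; numbers are from one replicate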
RN4220 kill: S. aureus RN4220 growth inhibition. 0.33% of 330,000 active. OD600, 16 h. inhibition, % (test concentration not listed);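 active means z-score of -3 or lower and OD600 up to 0.18 on both plates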;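 further: plate controls were untreated cells for no effect and reference antibiotic for full effect; stock transfer was 100 nL into about 80 µL; one replicate is shown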
Autofluor counter: compound fluorescence in toxin protease inhibitor counterscreen. fluorescence intensity (test concentration not listed). compound autofluorescence counterscreen, microsphere flow cytometry; stronger effect = higher value. 3.1% of 360,000 active;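 active means at least 3 SD above the mean of all compounds, about 16000 in these data; inconclusive means too few beads counted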;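 further: 100 nL of 1 mM stock went into each well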
Sa ugtP lethal: growth inhibition of S. aureus ugtP deletion strain; S. aureus RN4220 ugtP deletion, OD600 growth, 16 h; some inactives read as strong as hits; growth inhibition, % (test concentration not listed); 0.54% of 330,000 active; AID 1259309;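 active means z-score under -3 and OD600 up to 0.15 on both plates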;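 further: plate controls were untreated wells for no effect and antibiotic for full effect; wells of about 80 µL received 100 nL stock; the first replicate is given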
Mtb hypoxia inh growth: recorded beside Mtb hypoxia inh, whose call it bears; growth inhibition, %; measured here: M. tuberculosis growth (absorbance);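 0% = vehicle and 100% = reference antibiotic; read after six days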
Active calls of the source: *; u = inconclusive; x = not tested or not shown.

SMILES	Mtb hypoxia inh	Mtb hypoxia inh growth	PrP 5UTR inh	BJeLR lethal	RN4220 kill	Autofluor counter	Sa ugtP lethal
CC(C)(C)C(=O)N1N=C(c2cccc(NS(C)(=O)=O)c2)CC1c1cccs1 (stereo unspecified)	-14	-13	-23	-10	8.1	2710	-17
COc1cc(NC(=O)C2CC(c3ccccc3Cl)=NO2)cc(OC)c1OC (stereo unspecified)	5	11	-19	-4	2.0	4275	7
COc1ccccc1/C=C1/SC(=S)N(CCC(=O)Nc2cccnc2)C1=O	5	5	-16	10	14	5271	-11
CS(=O)(=O)N1CCC(C(=O)NCc2ccccc2)CC1	3	3	-10	-2	6.1	3590	1
O=C(CCS(=O)(=O)c1cccc2nsnc12)N1CCN(Cc2ccc3c(c2)OCO3)CC1	15	6	-13	2	7.0	3626	-5
COc1cccc(N2CCN(Cc3nc(N)nc(N4CCCc5ccccc54)n3)CC2)c1	x	x	-14	-7	-0.9	4318	-10
CC(C)c1cc(CNC(=O)c2ccc(OC3CCN(Cc4ccccn4)CC3)cc2)on1	-7	8	-14	5	-0.5	5242	-2
Cc1ccccc1NC(=S)NCC1CCC(CNC(=S)Nc2ccccc2C)CC1 (stereo unspecified)	2	1	-13	1	0.4	5525	0
CN(C)c1ccc(NC(=O)c2cccc(N3C(=O)C4C5C=CC(C5)C4C3=O)c2)cc1 (stereo unspecified)	2	8	x	-16	-2.2	10927	7
Cc1ccc(-c2nnc(SCC(=O)NCC3CCCO3)nc2-c2ccc(C)cc2)cc1 (stereo unspecified)	0	6	-26	x	-0.6	u	8
CC(=O)Nc1ccc(SCC(=O)NNC(=O)CN(C)S(=O)(=O)c2ccc(C)cc2)cc1	5	4	0	x	3.5	u	10
CCC(C)[C@H](NC(=O)N1CCn2c1nc1ccccc12)C(=O)NCc1ccc(OC)cc1 (stereo partly specified)	-5	2	-12	0	-2.2	5545	-10
C[C@H](NC(=O)[C@H](Cc1ccccc1)n1c(=O)[nH]c2ccccc2c1=O)C(=O)N1CCC(C(=O)O)CC1	x	x	-16	10	4.2	5279	1
CS(=O)(=O)CCC(C(=O)Nc1ccc2c(c1)OCO2)N1Cc2ccccc2C1=O (stereo unspecified)	7	7	-38	-6	5.8	5805	4
CCn1c(SCCN2CCOCC2)nc2c1c(=O)n(C)c(=O)n2C	15	6	-26	-11	2.7	4142	1
Cc1cc(=O)[nH]c(Nc2cccc(Br)c2)n1	5	3	-9	0	4.7	3812	-5
CCOc1ccc(N(CC(=O)N2CCN(c3ccccc3OC)CC2)S(=O)(=O)c2ccc(C)cc2)cc1	1	8	-16	-10	1.4	5593	5
O=C(CCS(=O)(=O)c1ccc(Cl)cc1)NCCN1C(=O)S/C(=C\c2ccccc2F)C1=O	13	6	-18	-12	7.8	2569	5
Cc1nc2sc3c(c2c(=O)n1/N=C/c1cccnc1)CCCC3	x	x	-8	-1	x	4266	x
O=C1CCc2cc(S(=O)(=O)Nc3ccccc3Cl)ccc2N1	-4	4	-19	x	11	4251	8

Brought forward from above: 2 entries, followed by the next part.
SMILES	Mtb hypoxia inh	Mtb hypoxia inh growth	PrP 5UTR inh	BJeLR lethal	RN4220 kill	Autofluor counter	Sa ugtP lethal
Cc1nc2sc3c(c2c(=O)n1/N=C/c1cccnc1)CCCC3	x	x	-8	-1	x	4266	x
O=C1CCc2cc(S(=O)(=O)Nc3ccccc3Cl)ccc2N1	-4	4	-19	x	11	4251	8
CCC(CC)C(=O)Nc1cccc(C(=O)c2ccccc2)c1	7	-2	-19	-2	-0.9	4487	-2
COc1cc(C(=O)N/C(=C\c2cn(C)c3ccccc23)C(=O)N2CCOCC2)cc(OC)c1OC	9	4	0	-8	4.6	4279	8
O=C(COC(=O)c1ccc(Cl)nc1)Nc1ccc2c(c1)CCC2	22	33	-26	x	2.5	2895	-1
CC1(C)CC(=O)C2=C(C1)OC(N)=C(C#N)C2c1ccc[nH]1 (stereo unspecified)	8	0	-12	2	6.4	4935	1
NS(=O)(=O)c1ccc(-c2ccc(/C=C3\NC(=S)NC3=O)o2)cc1	x	x	-2	8	x	3953	x
CC(=O)Nc1ccc(NC(=O)C(C)OC(=O)c2ccc(N(C)C)cc2)cc1 (stereo unspecified)	6	-5	-3	-13	0.5	4264	12
CCOC(=O)c1cc(C#N)c(N2CCCC2)nc1-c1ccccc1	x	x	-12	5	4.7	2459	6
N#C/C(=N/Nc1ccc(S(=O)(=O)N2CCOCC2)cc1)C(N)=O	x	x	-6	-5	x	4833	x
O=c1cc(-c2ccc(Cl)cc2)nc(N2CCN(c3ccccc3)CC2)[nH]1	-3	-4	-11	0	-9.9	3592	-17
CCOC(=O)C1CCCN(Cc2ccc(OCC)cc2)C1 (stereo unspecified)	3	4	-47	-10	2.2	6625	-2
CCn1c(N)nc2ccccc21	1	8	-27	-7	-6.4	3048	-8
CN1CCN(CCNC(=O)Nc2ccc(Cl)cc2)CC1	6	6	-10	-6	-3.2	3685	14
CN1CC2C3C(=O)N(Cc4ccccc4)C(=O)C3[C@](C)(C1=O)N2C(=O)c1ccc(Cl)cc1 (stereo partly specified)	5	10	x	x	3.0	x	-2
COc1ccc(OC)c(Nc2nc(N)nc(-c3cc4ccccc4o3)n2)c1	x	x	6	5	-11	3432	-16
Cc1ccccc1NC(=O)CNc1ccccc1C(=O)NCc1ccco1	x	x	-14	1	-0.8	3125	-6
COc1cccc(NC(=O)Cn2c(=O)c3c(ncn3Cc3ccccc3)n(Cc3ccccc3)c2=O)c1	x	x	-20	-15	-3.9	2303	-7
C/C(=N\NC(=O)Cc1ccc(Cl)c(Cl)c1)c1cccnc1	x	x	-6	3	x	5414	x
CC1C=CCC2C(=O)N(c3ccc(OC(=O)c4cccs4)cc3)C(=O)C12 (stereo unspecified)	11	2	1	2	0.9	2002	2
CCN1C(=O)C2C(C1=O)C(c1ccccc1)N1C(=O)c3ccccc3NC(=O)C21 (stereo unspecified)	3	7	x	x	2.3	x	-14
Cc1nn(CSc2c(F)c(F)c(F)c(F)c2F)c(C)c1[N+](=O)[O-]	-2	6	9	x	9.4	3758	-6
COc1cccc(OCc2cc(C3Nc4ccccc4C(=O)N3Cc3ccco3)ccc2OC)c1 (stereo unspecified)	-4	1	-8	2	-13	2532	8
CCC1CC=CC2C1C(=O)N(Cc1ccccc1)C2c1cc(C)ccc1F (stereo unspecified)	-2	6	x	x	-6.0	x	8
O=C(c1ccccc1F)N1CCN(S(=O)(=O)c2ccc(S(=O)(=O)N3CCCCCC3)cc2)CC1	-8	-1	-21	9	3.3	3424	13
O=[N+]([O-])c1ccc(S(=O)(=O)NN=C2CCCCC2)cc1	7	8	-14	x	9.5	2813	2
CC(=O)N1N=C(c2ccco2)CC1c1cc2ccc(C)cc2nc1Cl (stereo unspecified)	4	4	-8	-3	4.2	3956	-4
Cn1c(N)c(C(=O)CSc2nc(C3CC3)n(-c3ccccc3)n2)c(=O)n(C)c1=O	-1	-10	-9	x	4.4	6871	4
CC(Sc1ccc(S(=O)(=O)N2CCOCC2)cn1)c1ccccc1Cl (stereo unspecified)	4	7	-2	x	4.8	3774	7
Cc1sc(NC(=O)c2ccco2)c(C(c2cccnc2)N2CCCC2)c1C (stereo unspecified)	0	2	-7	9	-0.9	8333	-3
Cc1cc(Br)ccc1NC(=O)CN1C(=S)NC(C)(C)CC1C (stereo unspecified)	10	5	-29	-2	5.9	4185	2
O=C(c1cccs1)N1CCCC(c2nc3c(nnn3Cc3ccc(F)cc3)c(=O)[nH]2)C1 (stereo unspecified)	x	x	-9	-17	x	4292	x
C=CCSC(CC)(CC)C(N)=O	x	x	-22	3	x	4744	x
O=[N+]([O-])c1cccc(NNS(=O)(=O)c2ccccc2F)c1	10	-1	6	0	5.3	3004	7
NC(=O)c1ccccc1NC(=O)CCc1ccccc1	8	12	-72	-1	3.7	11040	10
CCN(CC)c1cc(NCCO)c([N+](=O)[O-])c2nonc12	-10	5	-12	-3	-0.3	2701	2
COc1ccc(-c2cc(C(=O)N3CCCc4ccccc43)no2)cc1	-17	-5	-51	-15	10	22780*	14
Cc1cc(C(=O)COC(=O)COc2ccccc2C#N)c(C)n1CC1CCCO1 (stereo unspecified)	-5	-4	-18	x	1.6	7793	-1
CC(=O)c1cnc(Nc2cccc(C)c2)s1	15	8	-72	6	5.3	3638	-4
COCCCN(C(=O)Cc1csc(-c2cccc(Cl)c2)n1)c1c(N)n(Cc2ccccc2)c(=O)[nH]c1=O	-1	4	-1	8	5.9	u	-6
COc1ccc(S(=O)(=O)n2cccc2)cc1	3	-4	x	-4	6.8	5960	8
CC(=O)c1ccc(OCCCC(=O)N(CCC2=CCCCC2)c2c(N)n(Cc3ccccc3)c(=O)[nH]c2=O)cc1	-6	1	-8	-1	1.1	5912	-5

Molecules from the list above that contain an aryl thioether with sulfur outside any ring (six):
SMILES	Mtb hypoxia inh	Mtb hypoxia inh growth	PrP 5UTR inh	BJeLR lethal	RN4220 kill	Autofluor counter	Sa ugtP lethal
Cc1ccc(-c2nnc(SCC(=O)NCC3CCCO3)nc2-c2ccc(C)cc2)cc1 (stereo unspecified)	0	6	-26	x	-0.6	u	8
CC(=O)Nc1ccc(SCC(=O)NNC(=O)CN(C)S(=O)(=O)c2ccc(C)cc2)cc1	5	4	0	x	3.5	u	10
CCn1c(SCCN2CCOCC2)nc2c1c(=O)n(C)c(=O)n2C	15	6	-26	-11	2.7	4142	1
Cc1nn(CSc2c(F)c(F)c(F)c(F)c2F)c(C)c1[N+](=O)[O-]	-2	6	9	x	9.4	3758	-6
Cn1c(N)c(C(=O)CSc2nc(C3CC3)n(-c3ccccc3)n2)c(=O)n(C)c1=O	-1	-10	-9	x	4.4	6871	4
CC(Sc1ccc(S(=O)(=O)N2CCOCC2)cn1)c1ccccc1Cl (stereo unspecified)	4	7	-2	x	4.8	3774	7

The list goes on.
SMILES	Mtb hypoxia inh	Mtb hypoxia inh growth	PrP 5UTR inh	BJeLR lethal	RN4220 kill	Autofluor counter	Sa ugtP lethal
CCC1C/C(=C\c2cc(OC)c(OC)cc2OC)C(=O)/C(=C/c2cc(OC)c(OC)cc2OC)C1 (stereo unspecified)	1	6	18	-1	5.3	2958	5
Cc1ccc(N(CC(N)=O)C2SC(=O)N(C)C2=O)cc1 (stereo unspecified)	16	9	-23	5	2.8	9696	-1
COCCOc1nc2c(c(=O)n(C)c(=O)n2C)n1Cc1cccc(OC)c1	x	x	-23	13	-1.0	2347	9
Cn1cccc1C(C(=O)NC1CCCCC1)N(C(=O)Cc1cccs1)C1CC1 (stereo unspecified)	12	5	-5	-4	2.5	6911	1
O=C(/C=C/c1ccco1)Nc1ccc(S(=O)(=O)N2CCOCC2)cc1	4	4	-14	6	7.5	4814	1
CCN1CCN(C(=O)NC2CC(=O)N(c3ccc(OC)cc3)C2)CC1 (stereo unspecified)	9	6	-84	8	3.6	5361	6
CCOc1ccc(OCC(O)CN2CCN(S(=O)(=O)c3cccc(C(F)(F)F)c3)CC2)cc1 (stereo unspecified)	2	-2	-17	-7	2.5	3672	6
COc1ccccc1NC(=S)Nc1cccc(F)c1	x	x	-19	0	4.6	3520	-3
CCN(CC)S(=O)(=O)c1ccc(N2CCOCC2)c(NC(=O)Cc2cccc3ccccc23)c1	4	3	-17	-16	5.6	2287	1
Cc1ccc(C(=O)c2cc(C)sc2NC(=O)CN2CCN(C(=O)c3ccco3)CC2)cc1	-56	27	-8	-14	6.7	4386	-7
C/C(CC(=O)Nc1cccc(Cl)c1)=N\NC(=O)Cc1ccc(Cl)cc1	x	x	-11	-12	x	3497	x
Cc1cc(=O)oc2ccc(OC(=O)CC(C)C)cc12	19	1	-16	-3	10	4482	10
CCN1CC=C2C(C#N)=C(N)C(C#N)(C#N)C(CCc3ccccc3)C2C1 (stereo unspecified)	7	9	1	x	-0.7	10764	3
COc1ccc(C(=O)N2CCc3ccccc32)cc1	4	11	-48	-4	6.3	9364	1
CCOC(=O)C1=C(C)NC(C)=C(C(=O)OCC)C1C(=O)OCC(=O)N(C)C	13	8	-15	-19	4.3	3906	-1
O=C(O)c1ccccc1NN=C1CCCCC1	11	3	-28	3	6.0	2512	0
CCOc1cc(S(=O)(=O)NCc2ccncc2)c(C)cc1C	-1	5	-14	6	6.8	3957	10
Cc1ccc(C(C)C)cc1OCC(=O)NCCCn1ccnc1	0	5	-10	x	0.0	3813	-8
CN(CC(=O)N1CCCCCC1)S(=O)(=O)c1ccccc1	11	11	-37	-4	5.3	4099	-1
CC(CCc1ccccc1)NC(=O)CSc1nnnn1C (stereo unspecified)	4	-2	-50	2	-1.6	8949	1
